Compound activity deposited in PubChem BioAssay by several laboratories.
LANA-H2A inh: blocks KSHV LANA binding to histone H2A/H2B. Q9QR71. cell-free LANA-H2A/H2B peptide, fluorescence polarization. 0.6% of 320,000 active. AID 2629. inhibition, % (test concentration not listed); in the data active means inhibition mostly above about 10%, no sharp cut-off; inactive means mostly below about 6.7%;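 further: stock transfer was 7.5 nL into about 10 µL; 0% = median of vehicle wells and 100% = median of positive control wells; one replicate is shown; the record names a cut of 25% in any replicate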
Target sequence (Q9QR71 whole entry, looked up): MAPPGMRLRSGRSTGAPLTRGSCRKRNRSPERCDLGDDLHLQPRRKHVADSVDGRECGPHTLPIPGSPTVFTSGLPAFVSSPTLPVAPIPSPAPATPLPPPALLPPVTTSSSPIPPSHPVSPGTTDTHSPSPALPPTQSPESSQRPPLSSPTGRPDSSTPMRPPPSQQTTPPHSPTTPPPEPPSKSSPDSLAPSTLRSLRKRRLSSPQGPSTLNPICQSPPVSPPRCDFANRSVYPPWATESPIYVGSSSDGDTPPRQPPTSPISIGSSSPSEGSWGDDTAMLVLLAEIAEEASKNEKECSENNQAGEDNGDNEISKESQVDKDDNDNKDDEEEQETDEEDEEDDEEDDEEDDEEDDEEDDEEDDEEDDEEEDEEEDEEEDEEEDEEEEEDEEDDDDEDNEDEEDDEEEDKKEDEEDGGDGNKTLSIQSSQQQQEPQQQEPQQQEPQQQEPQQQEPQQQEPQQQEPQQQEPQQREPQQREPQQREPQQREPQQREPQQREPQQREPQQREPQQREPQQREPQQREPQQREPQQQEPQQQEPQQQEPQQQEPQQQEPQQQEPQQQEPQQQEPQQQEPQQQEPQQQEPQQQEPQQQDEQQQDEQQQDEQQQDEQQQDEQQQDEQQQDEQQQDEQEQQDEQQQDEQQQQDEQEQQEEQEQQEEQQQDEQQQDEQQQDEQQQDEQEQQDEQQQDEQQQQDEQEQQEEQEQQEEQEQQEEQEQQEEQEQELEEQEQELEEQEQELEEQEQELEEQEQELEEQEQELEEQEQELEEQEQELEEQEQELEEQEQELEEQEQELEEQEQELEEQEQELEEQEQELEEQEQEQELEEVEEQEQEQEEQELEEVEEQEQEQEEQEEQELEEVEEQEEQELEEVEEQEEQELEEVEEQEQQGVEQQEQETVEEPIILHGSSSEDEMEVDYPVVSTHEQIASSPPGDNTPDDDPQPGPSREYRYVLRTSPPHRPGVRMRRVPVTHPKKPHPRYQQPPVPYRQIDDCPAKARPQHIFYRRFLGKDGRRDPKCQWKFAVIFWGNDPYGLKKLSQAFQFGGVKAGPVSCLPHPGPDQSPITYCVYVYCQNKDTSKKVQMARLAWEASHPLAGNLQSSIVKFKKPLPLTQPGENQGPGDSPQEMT
RanGTP-Impb inh: inhibitors of RanGTP-importin-beta interaction, primary screen, biochemical, FRET, CFP-Ran, YFP-importin-beta, homogeneous; cell-free CFP-Ran/YFP-importin-beta FRET ratio; inhibition, % (no concentration beside the values); 1.1% of 300,000 active; AID 2216;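 active means most replicates above 15%; inconclusive means exactly half above 15%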;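 further: 0% = DMSO wells and 100% = Ran loaded with GDP instead of GTP; wells of about 40 µL received 100 nL stock; the first replicate is given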
Beta2AR agonist: activates human beta-2 adrenergic receptor causing internalization | Am2.2-beta2AR cells, FAP receptor internalization, flow cytometry; reference of the scale not given here | response, % (test concentration not listed) | 0.43% of 340,000 active | P07550;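 active means response above a set limit, near 3 SD of response in nonfluorescent compounds, cut at about 42% in these data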;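 further: stock transfer was 100 nL into about 11 µL; a reference agonist was the positive control; negative values mostly stem from fluorescent compounds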
HNF4A DNA FP: change in binding of human HNF4 alpha to DNA; HNF4a-FITC DNA binding, fluorescence polarization, 1 h; activity change, % at 10 µM; 0.3% of 360,000 active; in the data active means activity change above about 30%, passing the limit was not always enough;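 further: controls were the assay level and a saturating level of protein; the project sought stronger binding though the title names inhibitors; some compounds called inactive have numbers as strong as hits; positive values seem to mean higher polarization but the record does not say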
ALR H2O2 inh: human ALR oxidase inhibition via reduced H2O2; P55789; purified ALR, DTT oxidation, H2O2 HRP-luminol luminescence; inhibition, % (no concentration beside the values); 3.8% of 290,000 active; AID 485317;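 active means mean and each replicate at 75% or more; inconclusive means only one of the two met; inactive means neither met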;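 further: stock transfer was 7.5 nL into about 7.5 µL; 0% = neutral wells and 100% = wells with inactivated enzyme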
Vif A3G: inhibitors of Vif binding to APOBEC3G peptide, primary screen, biochemical, TR-FRET, GST-Vif 1-94, biotin-A3G peptide, dose response retest (AID 1117319) | TR-FRET GST-Vif / biotin-A3G peptide binding; higher % means a stronger effect; test concentration not given here; strong numbers were not always called active | 0.57% of 260,000 active | one-dose inhibition, %; IC50 in µM for titrated hits;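 active means above the screen mean plus three standard deviations and confirmed in dose response; inconclusive means results disagree or hit not tested in dose response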;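 further: Vif residues 1-94 fused to GST binding biotinylated APOBEC3G peptide 110-148; 0% = full assay without inhibitor and 100% = GST in place of GST-Vif; retest series ran down from 100 µM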
Calb FLC: C. albicans growth modulation with fluconazole; C. albicans CaCi-2 (fluconazole-resistant clinical isolate) + fluconazole, Alamar Blue growth, 48 h; growth inhibition, % (concentration not given with the values); 0.57% of 300,000 active; AID 1979;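 active means most replicates above 75%; inconclusive means exactly half above 75%; inactive means most below 75%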;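 further: all wells also contain fluconazole at 8 µg/ml as a sub-toxic cotreatment; 0% = median of DMSO wells and 100% = median of geldanamycin control wells; wells of about 8 µL received 7.5 nL stock; the first replicate is given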
* hit, by the source's call; ? = inconclusive; . = not tested or not shown; & = joins results of further samples.

Each structure is followed by: LANA-H2A inh	RanGTP-Impb inh	Beta2AR agonist	HNF4A DNA FP	ALR H2O2 inh	Vif A3G	Calb FLC
1. Cc1cc(=O)oc(C)c1C(=O)N1CCN(C(c2ccccc2)c2ccccc2)CC1
 : 3.8	-2.7	-3.8	-3.6	3.4	21.5%	-10.8
2. CCC(C)N(C(=O)CSc1nnnn1-c1ccccc1OC)C1CCS(=O)(=O)C1 (centres undefined)
 : 7.1	.	-4.8	4.0	1.2	-16.4%	.
3. Cc1nn(C)c(C)c1NC(=O)c1ccc(Cl)cc1
 : 0.6	2.9	-6.3	0.9	.	0.0%	6.9
4. CC1(C)C2CCC1(C)C(OC(=O)CNc1ccccc1)C2 (centres undefined)
 : 6.2	-1.5	-0.7	-1.9	.	1.8%	0.6
5. Cc1ccccc1NC(=O)COC(=O)c1c[nH]c(=O)[nH]c1=O
 : 3.2	-1.9	-3.8	-3.6	-1.6	.	12.0
6. C=CCn1c(SCC(N)=O)nc(C)cc1=O
 : 0.1	-0.1	-6.9	-0.8	-3.0	6.1%	10.9
7. CCOC(=O)C1CCCN(C(=O)c2cc(Cl)ccc2NC(=O)C2=C(C)OCCS2)C1 (centres undefined)
 : 1.3	0.4	5.1	-1.9	-4.3	-2.5%	26.4
8. COCC(C)NC(=O)c1oc2c(c1C)C1(CCC2)SCCS1 (centres undefined)
 : -2.7	-0.9	5.4	2.4	-12.3	17.5%	5.8
9. Fc1ccc(-c2csc(NC(=S)Nc3ccccc3)n2)cc1
 : 0.4	-2.0	-4.8	1.3	.	.	7.3
10. COCCN(C(=O)Cc1cccs1)c1nnc(-c2cccnc2)s1
 : -1.1	4.3	-2.7	-4.9	-3.4	-8.1%	6.7
11. COc1ccc(CCNCc2ccc(OCC(=O)N3CCCCC3)c(OC)c2)cc1OC
 : 2.9	7.4	0.9	-1.4	-3.9	1.4%	-3.8
12. CC1(c2ccccc2)CC(C)(C)N(C(=O)c2cc([N+](=O)[O-])cc([N+](=O)[O-])c2)c2ccccc21 (centres undefined)
 : 0.7	?	7.0	-2.7	-0.5	8.5%	11.0
13. CCn1c(SCC(=O)Nc2ccc(OC)cc2)nc2nc3c(cc2c1=O)CCCC3
 : 0.5	0.6	0.5	0.2	-4.9	2.5%	16.9
14. COc1ccc(N2CCN(S(=O)(=O)c3ccc(Cl)c(C(F)(F)F)c3)CC2)cc1
 : 2.5	0.2	6.7	-4.2	-0.4	1.2%	2.2
15. COc1ccc(-c2ccc(S(=O)(=O)N3CCOCC3)cc2)cc1
 : 5.7	-0.3	-5.7	1.0	0.7	-0.9%	-7.7
16. COc1ccc(-c2[nH]ncc2CN(C)Cc2nonc2C)c(OC)c1
 : -11.2	0.5	-1.6	3.5	-3.1	1.8%	9.1
17. c1ccc(CNc2ncnc3c2cnn3-c2ccccc2)cc1
 : 3.8	-4.0	10.9	-2.5	-15.9	4.2%	0.1
18. O=c1c2c(-c3ccc([N+](=O)[O-])cc3)ccnc2[nH]n1-c1ccccc1
 : 6.4	-1.0	11.0	3.0	.	-1.8%	1.4
19. O=C(Nc1ccccc1)N1CCCc2ccccc21
 : 1.8	-2.7	15.7	-0.5	-4.3	8.7%	.
20. COc1ccc(OC)c(C2C(C#N)=C(N)Oc3c2c(C)nn3-c2ccc(C)cc2)c1 (centres undefined)
 : -1.3	?	1.9	2.0	35.9	1.4%&2.2%	-10.7
21. COc1ccc(CNC(=O)CN2CCN(c3ccccc3)CC2)cc1
 : 2.3	-1.4	-3.6	0.0	.	1.2%	-2.2
22. COc1cccc(C(=O)Nc2ccc3[nH]c(=O)[nH]c3c2)c1OC
 : 1.9	-2.4	7.9	-0.9	-22.5	?	-11.7
23. CN(C)/C=C(/C(=O)c1ccccc1Cl)S(=O)(=O)c1ccccc1
 : -0.4	0.1	-1.0	-0.4	8.0	-0.4%	-4.2
24. CCOC(=O)c1cc2n(n1)C(C(F)(F)C(F)(F)F)CC(C)N2 (centres undefined)
 : -0.5	-3.3	0.5	0.9	1.7	?	22.4
25. CCCCN1C[C@H](O)[C@@H](O)[C@H](O)[C@H]1CO
 : -4.9	?	1.7	1.1	11.0	-5.9%	.
26. CN(C(=O)CSc1nnnn1-c1ccc(O)cc1)C1CCS(=O)(=O)C1 (centres undefined)
 : -0.9	2.1	2.0	-6.5	-41.2	.	-2.3
27. CCC(=O)Nc1cccc(C2=NN(c3ccccc3)C(c3ccc(OC)cc3)C2)c1 (centres undefined)
 : -2.0	3.4	0.6	1.3	-3.9	-8.9%	-1.6
28. N#Cc1cc2cc3c(cc2nc1N1CCOCC1)OCO3
 : -4.4	38.5*	24.7	-0.1	-8.2	-8.6%	-6.6
29. COc1ccc(OC)c(C2=NOC(C(=O)NCCN3CCOCC3)C2)c1 (centres undefined)
 : 2.4	-3.2	1.7	-0.2	-8.8	-6.2%	21.9
30. O=C(COC(=O)CC1CC2CCC1C2)Nc1ccc(F)cc1Cl (centres undefined)
 : -0.4	.	-9.7	4.9	-2.5	.	.
31. CCC(C)(C)C1CCC2(CC1)NC(=S)N(c1ccccc1)N2 (centres undefined)
 : 4.5	8.9	-5.8	0.6	0.6	-9.2%	-6.0
32. CCOc1ccc2[nH]c(=O)c(CN(CC3COCCO3)C(=O)C3CC3)cc2c1 (centres undefined)
 : -1.8	-0.3	-10.7	-18.4	-3.4	?	1.8
33. CC(NC(=O)Cn1cccc1C(=O)c1ccccc1)c1ccc2c(c1)OCCO2 (centres undefined)
 : -0.4	-2.6	-3.7	0.8	-6.3	.	-25.2
34. O=C(O)c1cccc2c1-c1ccc([N+](=O)[O-])cc1C2=O
 : .	.	-3.5	-1.6	.	-7.9%	.
35. O=C(NCc1cccnc1)[C@@H]1CC=C[C@@H]2CCN(Cc3ccccc3)C(=O)[C@@H]21
 : 8.2	-3.4	9.3	-1.1	-3.2	.	-6.2
36. COCCN1C(=O)c2ccccc2C(C(=O)NCCCN2CCCC2)C1c1c[nH]c2ccccc12 (centres undefined)
 : -5.2	0.9	.	.	-15.7	6.7%	17.5
37. O=C(CSc1nnc(-c2ccc(O)cc2)o1)N1CCOCC1
 : -3.6	1.0	9.9	-1.1	15.5	23.5%	-6.7
38. COc1ccc(C(=O)NNC(=O)c2ccc3ccccc3n2)cc1
 : 3.0	.	8.2	3.1	1.4	.	.
39. CCOC(=O)C1=C(CC)Nc2ccccc2N=C1NC(=O)c1ccc(S(=O)(=O)N2CCCC2)cc1
 : 1.2	1.0	5.3	-1.8	-13.3	-7.8%	7.8
40. O=C(Nc1cc([N+](=O)[O-])ccc1F)c1cccs1
 : -2.6	0.7	-11.8	3.7	-3.7	1.5%	-1.4
41. CCC(=O)Nc1sc2c(c1C(=O)OC)CCN(Cc1ccccc1)C2
 : -0.5	91.8*	-1.2	-5.2	1.5	.	-7.2
42. Cc1ccc(OCC(=O)N2c3ccccc3CC2C)c([N+](=O)[O-])n1 (centres undefined)
 : 7.8	-0.4	-13.7	6.0	2.4	-3.1%	-15.1
43. CCCC1NC(=O)NC(C)=C1C(=O)OCC (centres undefined)
 : -2.6	0.6	-2.0	-2.9	5.3	-5.0%	-17.1
44. COCCN(C(=O)c1csnn1)C(C(=O)NC1CCCC1)c1ccccc1F (centres undefined)
 : -3.6	0.4	-0.7	1.2	-9.0	.	-6.9
45. CCc1ccc(OCCCC(=O)Nc2cccc(C(=O)O)c2)cc1
 : -0.4	-0.3	-2.5	-1.1	.	3.8%	-5.2
46. O=C(Nc1ccc(S(=O)(=O)NCc2ccccc2)cc1)c1ccc(Br)o1
 : 2.1	.	8.2	-0.7	-10.0	-1.1%	-19.1
47. CCc1cc(C(=O)N/N=C/c2ccc(OC)cc2)c2ccccc2n1
 : 7.1	2.0	15.5	2.4	-12.3	.	-2.6
48. O=C(Nc1nccs1)c1cccc(NC(=O)c2ccco2)c1
 : 7.9	-0.7	-15.3	0.1	-2.9	-7.3%	28.8
49. O=C(C1=C(O)C(=O)N(CC2CCCO2)C1c1ccccc1F)c1ccco1 (centres undefined)
 : -2.3	1.7	-1.9	4.4	-3.8	.	-4.2
50. COc1ccc2cc(Br)ccc2c1CC(=O)NCCCN1CCOCC1
 : 1.3	2.6	-6.1	3.2	-9.4	.	4.3
51. CCC(C)NC(=O)C1c2ccccc2C(=O)N1Cc1ccccc1 (centres undefined)
 : 4.8	4.3	9.2	-3.0	-15.5	-1.5%	7.4
52. Cc1ccc(C(=O)OCC(=O)NC2CC2)s1
 : 4.7	.	-4.0	9.5	-4.1	9.1%	.
53. Cc1cc(C)n(-c2ccc(NC(=O)C3CCCCN3C(=O)c3ccc(C)s3)cc2)n1 (centres undefined)
 : 0.8	1.9	7.5	5.7	-1.9	.	-15.6
54. O=C1c2cnc3nc(SCc4cccc(Cl)c4)nn3c2CC2c3ccccc3CCN12 (centres undefined)
 : 7.4	?	-1.5	0.5	-8.0	-15.1%	5.8
55. COc1cccc(CNC(=O)CCNC(=O)N2CCn3c2nc2ccccc23)c1
 : 5.7	3.3	-7.3	0.7	97.9*	.	-4.5
56. Clc1ccccc1-c1nc(-c2ccccc2)n[nH]1
 : 0.6	-1.9	-10.2	-0.1	5.4	31.4%	-17.0
57. COc1cccc(C(C(=O)NC(C)(C)C)N(CCC(C)C)C(=O)CCC(=O)Nc2cc(C)on2)c1OC (centres undefined)
 : -0.2	-0.4	1.1	5.1	1.7	-2.4%	24.0
58. COC(=O)CSc1nnc(-c2c[nH]c3ccccc23)o1
 : -5.4	-0.1	14.4	-3.6	-0.8	-2.4%	7.1
59. O=C(NC(=S)Nc1ccccn1)c1ccc(-c2ccccc2)cc1
 : 2.9	-1.5	-5.2	7.9	2.4	.	16.9
60. CC(NC(=O)Cc1ccccc1)c1ccccc1 (centres undefined)
 : 4.6	3.8	-5.3	0.1	-1.6	.	-15.4

More results follow.
Each structure is followed by: LANA-H2A inh	RanGTP-Impb inh	Beta2AR agonist	HNF4A DNA FP	ALR H2O2 inh	Vif A3G	Calb FLC
61. O=C(NCCc1ccccc1)C1CCN(S(=O)(=O)c2ccc(-n3cnnn3)cc2)CC1
 : 7.5	2.0	-6.9	-1.7	3.3	14.5%	0.4
62. COc1ccccc1C(=O)NC(=O)COC(=O)c1ccc(Cl)nc1
 : 2.9	-4.8	-7.9	-2.0	-0.1	-17.7%	-3.6
63. COc1ccc(-n2ccnc(SCC(=O)NC3CCCC3)c2=O)cc1
 : 1.7	-10.0	6.3	-0.7	51.2	-5.7%	4.2
64. COc1ccc(C(=O)Cn2ccsc2=NC(C)=O)cc1
 : 3.1	4.4	8.0	-3.6	1.0	.	-0.5
65. CC(C)CN(C(=O)COC(=O)c1ccc(-c2ccccc2)cc1)C1CCS(=O)(=O)C1 (centres undefined)
 : -1.6	-1.3	-5.4	1.2	-0.6	3.3%	-6.1
66. CCN(CC)S(=O)(=O)c1ccc(N2CC(C(=O)N3Cc4ccccc4CC3C(N)=O)CC2=O)cc1 (centres undefined)
 : 0.0	.	5.4	2.9	5.6	.	.
67. O=c1[nH]c2c(s1)C=Nc1ccccc1N2
 : 37.8*	2.9	-6.9	-98.8	51.9	14.1%	-2.4
68. COc1ccc(NS(=O)(=O)c2ccc(N3CC(O)=C(c4ccccc4)C3=N)cc2)cc1
 : -4.5	1.2	-1.4	-3.3	6.4	?	0.7
